Ecoli rRNA inh: inhibits bacterial ribosomal RNA function over humanized ribosomes. GFP signal change (wild-type ribosome), % (concentration not given with the values). E. coli WT GFP vs humanized-ribosome RFP mutants, fluorescence, 24 h; stronger effect = lower value; DMSO median 0, no signal -100. actives 1.6% (n = 350,000);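 active = significant combined selectivity score with lowered wild-type GFP, culture density cut under 30%, mutant RFP and density less affected; inactive = any of these conditions unmet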; also: one replicate is shown; some compounds called inactive have numbers as strong as hits
Beta cell apopt: blocks beta cell apoptosis | INS-1E cytokine-induced death, ATP luminescence, 48 h; percent of positive-control rescue, neutral wells zero | protection from apoptosis, % (no concentration beside the values) | actives 0.8% (n = 300,000) | AID 435005;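 active = all replicates at 75% or more, or half of them and the mean; inconclusive = half reach 75% but not the mean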;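 also: 0% = cytokine-treated negative control wells and 100% = positive control rescue; higher means more ATP so stronger rescue from cytokine killing; wells of about 40 µL received 100 nL stock; the first replicate is given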
Calb FLC: C. albicans growth modulation with fluconazole; C. albicans CaCi-2 (fluconazole-resistant clinical isolate) + fluconazole, Alamar Blue growth, 48 h; growth inhibition, % (concentration not given with the values); actives 0.57% (n = 300,000); AID 1979;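 active = most replicates above 75%; inconclusive = exactly half above 75%; inactive = most below 75%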;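 also: all wells also contain fluconazole at 8 µg/ml as a sub-toxic cotreatment; 0% = median of DMSO wells and 100% = median of geldanamycin control wells; wells of about 8 µL received 7.5 nL stock; the first replicate is given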
LANA-H2B inh: blocks KSHV LANA binding to histone H2A/H2B; cell-free LANA-H2A/H2B peptide, fluorescence polarization; inhibition, % (test concentration not listed); actives 0.6% (n = 320,000); in the data active = inhibition mostly above about 10%, no sharp cut-off; inactive = mostly below about 6.7%;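 also: stock transfer was 7.5 nL into about 10 µL; 0% = median of vehicle wells and 100% = median of positive control wells; one replicate is shown; the record names a cut of 25% in any replicate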
B2AR ag: human beta-2 adrenergic receptor agonism by FAP. actives 0.43% (n = 340,000). response, % (concentration not given with the values). P07550. Am2.2-beta2AR cells, FAP receptor internalization, flow cytometry; reference of the scale not given here. AID 504454;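 active = response above a set limit, near 3 SD of response in nonfluorescent compounds, cut at about 42% in these data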;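 also: stock transfer was 100 nL into about 11 µL; a reference agonist was the positive control; negative values mostly stem from fluorescent compounds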
Target sequence (P07550 whole entry, looked up): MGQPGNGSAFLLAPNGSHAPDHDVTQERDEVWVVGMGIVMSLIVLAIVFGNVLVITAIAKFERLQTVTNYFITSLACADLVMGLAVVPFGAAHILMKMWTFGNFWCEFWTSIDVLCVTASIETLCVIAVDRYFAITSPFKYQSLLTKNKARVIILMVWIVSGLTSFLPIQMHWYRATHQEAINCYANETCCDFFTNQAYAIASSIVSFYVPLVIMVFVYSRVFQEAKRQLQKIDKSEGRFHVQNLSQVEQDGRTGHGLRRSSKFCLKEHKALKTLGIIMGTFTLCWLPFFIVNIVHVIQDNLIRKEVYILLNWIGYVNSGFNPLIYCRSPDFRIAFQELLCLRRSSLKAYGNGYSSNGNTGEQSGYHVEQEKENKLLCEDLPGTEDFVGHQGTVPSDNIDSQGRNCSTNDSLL
Bfl-1 A1 inh: inhibitors of the anti-apoptotic protein A1, read as caspase activation; MEF A1-2A-BIM cells, Caspase-Glo 3/7 luminescence, 3 h; percent of clofoctol response, vehicle zero; caspase activation, % (concentration not given with the values); actives 0.066% (n = 330,000); AID 2462;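 active = over half of replicate activation scores above 10%, or exactly half above 10 with the replicate mean above 10; inconclusive = replicate mean below 10 yet half the replicates above 10; inactive = over half of replicates below 10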;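 also: wells of about 30 µL received 50 nL stock; many hits fall short of the cut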
ALR H2O2 inh: human ALR oxidase inhibition via reduced H2O2. inhibition, % (no concentration beside the values). purified ALR, DTT oxidation, H2O2 HRP-luminol luminescence. AID 485317. actives 3.8% (n = 290,000);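 active = mean and each replicate at 75% or more; inconclusive = only one of the two met; inactive = neither met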;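 also: stock transfer was 7.5 nL into about 7.5 µL; 0% = neutral wells and 100% = wells with inactivated enzyme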
Target sequence (P55789 whole entry, looked up): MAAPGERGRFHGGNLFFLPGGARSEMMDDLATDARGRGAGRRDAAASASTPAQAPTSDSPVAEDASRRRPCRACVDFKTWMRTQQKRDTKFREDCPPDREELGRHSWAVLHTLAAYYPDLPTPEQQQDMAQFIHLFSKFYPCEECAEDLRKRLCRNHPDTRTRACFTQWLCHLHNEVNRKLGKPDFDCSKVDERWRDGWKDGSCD
T cruzi inh: blocks replication of Trypanosoma cruzi. T. cruzi beta-gal in NIH3T3, luminescence, 90 h. inhibition, % (concentration not given with the values). actives 1.4% (n = 300,000);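 active = mean inhibition across valid replicates above about 55%, limit read from the data; inconclusive = mean below that limit but half or more replicates reach it; inactive = mean below it, under half of replicates reach it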;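 also: signal also drops with host cell toxicity which is not excluded here; 0% = plate median of DMSO wells and 100% = zero luminescence signal; higher percent means less beta-gal luminescence so fewer parasites; stock transfer was 50 nL into about 50 µL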
Ecoli rRNA inh OD600: further read-out of Ecoli rRNA inh, marked with its call; OD600 change, %; measured here: OD600 growth;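 optical density of the mix in the first replicate; 0 = DMSO median and -100 = no signal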
Ecoli rRNA inh RFP: also measured in Ecoli rRNA inh; calls as there; RFP signal change, %; measured here: RFP humanized mutant strains;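 first replicate; 0 = DMSO median and -100 = no signal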
The depositor's hits bear a star; i = inactive; ? = inconclusive; nt = not tested or not shown; + = active, no number.

SMILES	Ecoli rRNA inh	Ecoli rRNA inh OD600	Ecoli rRNA inh RFP	Beta cell apopt	Calb FLC	LANA-H2B inh	B2AR ag	Bfl-1 A1 inh	ALR H2O2 inh	T cruzi inh
Nc1cc(-c2ccc(OC(F)(F)F)cc2)nn1-c1ccc(Cl)c(Cl)c1	nt	nt	nt	-10	3	2.1	-3	0.2	-5	5
CN(C)c1nn(C(=O)Nc2cccc(C(F)(F)F)c2)cc1-c1ccccc1	-57	-78	-24	-3	-23	3.2	-2	0.2	16	1
O=C(Nc1ccc2oc(-c3cccc4ccccc34)nc2c1)c1ncn[nH]1	nt	nt	nt	6	-5	-0.9	10	-0.3	-2	39
Cc1sc(-c2ccncc2)nc1OC(=O)c1cc(Cl)cc(Cl)c1	nt	nt	nt	-1	9	0.2	4	-0.5	-1	-9
O=C(Nc1ccc(Br)cc1F)C1CCCO1 (configuration not stated)	nt	nt	nt	-1	3	-2.6	-12	-0.9	-8	-1
COc1ccc(C(=O)NC(NC(=S)Nc2ccc(S(N)(=O)=O)cc2)C(Cl)(Cl)Cl)cc1 (configuration not stated)	nt	nt	nt	-1	6	7.0	2	-0.1	22	-9
O=C(O)CCNS(=O)(=O)c1cccc2nsnc12	7	5	1.3	-6	nt	-1.3	-8	0.9	-17	nt
CC(C)OC(=O)c1ccc(COC(=O)CNC(=O)c2ccco2)cc1	-5	-5	-0.3	-9	-1	-2.9	-3	0.2	nt	-6
COc1ccc(NC(=O)CN(C)C(=O)Cn2c(=O)oc3ccccc32)cc1	6	3	1.8	-3	-2	-0.4	7	0.5	-7	-8
C/C(=N\Nc1cccc2cccnc12)c1ccccn1	-6	-18	2.8	5	-8	1.9	-5	0.4	90*	77*
COc1ccc([N+](=O)[O-])cc1N(CC(O)CN(C)C)S(=O)(=O)c1ccc(C)cc1 (configuration not stated)	2	-2	1.0	1	3	3.2	-3	-1.5	2	-11
O=C(COC(=O)COc1ccccc1)Nc1ccc(Br)cc1F	12	23	0.3	3	nt	-8.3	-2	2.2	-20	nt
COc1cccc(C2CC(c3ccc(Cl)cc3)n3nc(N)nc3N2)c1 (configuration not stated)	1	0	3.2	-6	8	+	4	-1.0	1	12
CCc1nnc(NC(=O)CSc2nnc(CSc3nc(C)cc(C)n3)n2C)s1	nt	nt	nt	2	5	2.5	0	-0.6	-20	-7
CCC(C)c1ccccc1NC(=O)COC(=O)c1ccc(C)c(NC(=O)c2ccco2)c1 (configuration not stated)	nt	nt	nt	-2	16	8.6	0	0.8	-10	-8
CCc1nnc(NC(=O)CSc2nccn2-c2cccc(C)c2C)s1	1	-1	11	18	7	-1.0	-11	0.0	?	-23
COc1cccc(OC)c1NC(=O)NC(=O)c1c(OC)c(Br)cc([N+](=O)[O-])c1OC	-13	-3	1.0	nt	6	-5.0	-3	-1.7	-11	nt
Cc1ccc(S(=O)(=O)N2[C@@H](c3ccc(Cl)cc3)C(C(=O)O)=CC[C@H]2c2ccc(Cl)cc2)cc1	-48	-75	-24	4	nt	1.2	-8	0.0	9	nt
O=C(CSc1nccc(=O)[nH]1)c1ccccc1Br	6	5	-8.8	-3	29	-1.3	-7	-0.1	20	-14
CC1(C)CC(=O)C(C(N)=NC(=O)c2ccc([N+](=O)[O-])cc2)=C(O)C1	18	17	0.4	-7	-13	3.9	-15	0.1	89*	-3

14 of these compounds, reformatted.
Every second line gives: Ecoli rRNA inh	Ecoli rRNA inh OD600	Ecoli rRNA inh RFP	Beta cell apopt	Calb FLC	LANA-H2B inh	B2AR ag	Bfl-1 A1 inh	ALR H2O2 inh	T cruzi inh
O=C(O)CCNS(=O)(=O)c1cccc2nsnc12
    7	5	1.3	-6	nt	-1.3	-8	0.9	-17	nt
CC(C)OC(=O)c1ccc(COC(=O)CNC(=O)c2ccco2)cc1
    -5	-5	-0.3	-9	-1	-2.9	-3	0.2	nt	-6
COc1ccc(NC(=O)CN(C)C(=O)Cn2c(=O)oc3ccccc32)cc1
    6	3	1.8	-3	-2	-0.4	7	0.5	-7	-8
C/C(=N\Nc1cccc2cccnc12)c1ccccn1
    -6	-18	2.8	5	-8	1.9	-5	0.4	90*	77*
COc1ccc([N+](=O)[O-])cc1N(CC(O)CN(C)C)S(=O)(=O)c1ccc(C)cc1 (configuration not stated)
    2	-2	1.0	1	3	3.2	-3	-1.5	2	-11
O=C(COC(=O)COc1ccccc1)Nc1ccc(Br)cc1F
    12	23	0.3	3	nt	-8.3	-2	2.2	-20	nt
COc1cccc(C2CC(c3ccc(Cl)cc3)n3nc(N)nc3N2)c1 (configuration not stated)
    1	0	3.2	-6	8	+	4	-1.0	1	12
CCc1nnc(NC(=O)CSc2nnc(CSc3nc(C)cc(C)n3)n2C)s1
    nt	nt	nt	2	5	2.5	0	-0.6	-20	-7
CCC(C)c1ccccc1NC(=O)COC(=O)c1ccc(C)c(NC(=O)c2ccco2)c1 (configuration not stated)
    nt	nt	nt	-2	16	8.6	0	0.8	-10	-8
CCc1nnc(NC(=O)CSc2nccn2-c2cccc(C)c2C)s1
    1	-1	11	18	7	-1.0	-11	0.0	?	-23
COc1cccc(OC)c1NC(=O)NC(=O)c1c(OC)c(Br)cc([N+](=O)[O-])c1OC
    -13	-3	1.0	nt	6	-5.0	-3	-1.7	-11	nt
Cc1ccc(S(=O)(=O)N2[C@@H](c3ccc(Cl)cc3)C(C(=O)O)=CC[C@H]2c2ccc(Cl)cc2)cc1
    -48	-75	-24	4	nt	1.2	-8	0.0	9	nt
O=C(CSc1nccc(=O)[nH]1)c1ccccc1Br
    6	5	-8.8	-3	29	-1.3	-7	-0.1	20	-14
CC1(C)CC(=O)C(C(N)=NC(=O)c2ccc([N+](=O)[O-])cc2)=C(O)C1
    18	17	0.4	-7	-13	3.9	-15	0.1	89*	-3

(further entries)
SMILES	Ecoli rRNA inh	Ecoli rRNA inh OD600	Ecoli rRNA inh RFP	Beta cell apopt	Calb FLC	LANA-H2B inh	B2AR ag	Bfl-1 A1 inh	ALR H2O2 inh	T cruzi inh
O=C(Nc1ccc(F)cc1)c1cc2ccccc2o1	1	11	-4.3	nt	-16	-5.9	-4	-7.9	-1	-13
COc1ccc2oc(C(=O)Nc3ccccc3N3CCOCC3)c(C)c2c1	-2	-5	-2.3	4	-3	-1.7	7	0.7	-9	5
CC(C)CN1C(=O)C(=O)N(CC(=O)Nc2cc(Cl)ccc2Oc2ccccc2)C1=O	-10	-19	-1.4	-3	0	-1.5	2	0.8	nt	-8
O=C(Nc1ccccc1N1CCOCC1)c1csc2c1CCCC2	-32	-27	-5.8	nt	23	nt	-5	nt	nt	9
COc1ccc(-c2noc(CNS(=O)(=O)c3ccc(NC(C)=O)cc3)n2)cc1	4	3	0.2	-8	18	0.3	4	-0.9	-3	1
Cn1nccc1C(=O)N1CCOCC1	4	6	1.0	-11	-1	2.4	4	0.5	-11	-12
CCN(CC(=O)NCc1ccc(Cl)cc1)C(=O)Cc1ccc(OC)cc1	nt	nt	nt	2	26	-0.2	-5	-0.1	nt	1
O=C(OCCCCOC(=O)c1ccccc1)c1ccccc1	-2	-11	0.0	-1	-2	-1.0	-2	-1.0	-20	5
c1cc2c(cnc3cscc32)s1	19	24	1.7	-11	-20	8.6	0	0.2	-6	-19
Clc1ccc(-c2c[nH]c3ccccc23)nn1	7	12	0.6	-1	4	-2.1	-6	0.4	-10	17
COC(=O)/C(=C(/F)Sc1cc(C)c(O)c(C)c1)C(F)(F)F	nt	nt	nt	-3	14	7.9	7	-0.3	nt	-10
CCOc1ccccc1CNC(=O)CCC(=O)N1Cc2ccccc2Oc2ncccc21	-5	-7	0.5	-1	0	-0.9	-2	-0.6	-2	-7
CC(C(=O)NCc1cccs1)N1C(=O)c2ccccc2C1=O (configuration not stated)	15	15	-0.8	6	-9	0.1	1	-0.5	-17	-4
Cc1ccc(NC(=O)OC(C)CNC(=O)Oc2cccc(C)c2)cc1 (configuration not stated)	-10	-12	4.9	-4	-24	-1.6	0	0.2	-11	5
CCN(CC)CC#CCC1(O)c2ccccc2-c2ccccc21	-1	1	-0.6	-10	-19	-2.0	12	0.2	-3	12
O=C(CSc1n[nH]c(-c2cccnc2)n1)Nc1ccc(Cl)cc1	-17	-17	-1.2	-1	2	-0.9	-9	-0.3	6	-14
CCNc1nc(NC(C)(C)C)nc(Oc2ccc(=O)n(-c3ccccc3)n2)n1	3	7	-1.2	0	-3	5.9	-4	-1.1	-20	-7
O=C1CCCN1CC(=O)N1CCCC(N2CCN(c3cccc(Cl)c3)CC2)C1 (configuration not stated)	1	-2	1.0	-2	-5	-5.6	15	0.8	12	6
COc1ccccc1N1CCN(/N=C/c2ccc(O)cc2O)CC1	2	1	-2.3	9	-14	-4.3	4	-1.9	2	-17
COc1ccc(-c2nc3nc(C)c(Cc4ccccc4)c(=O)n3[nH]2)cc1	nt	nt	nt	10	-4	1.7	5	0.5	44	8
Cc1cccc(NCc2ccccc2)c1	7	4	11	-10	0	-2.2	-1	0.6	-3	-11
Cc1cc(OCC(=O)NC2CCN(C)CC2)ccc1[N+](=O)[O-]	20	5	5.4	-6	-5	1.2	-1	0.2	-2	49
O=C(C1CCCN1S(=O)(=O)c1cccc2cccnc12)N1CCN(c2ccccc2)CC1 (configuration not stated)	5	2	4.2	nt	5	5.3	0	0.9	88*	-3
Cc1ccc(S(=O)(=O)NCCC(=O)N2CCN(Cc3ccccc3)CC2)cc1	nt	nt	nt	-9	21	-6.1	8	0.1	-15	-1
CC1(C(=O)NNC(=O)c2cccc([N+](=O)[O-])c2)CC1(Br)Br (configuration not stated)	1	3	-4.3	4	-9	6.2	-27	-1.1	0	-6
CC(=O)Nc1cccc2c1C(=O)N(c1ccc(C)cc1)C2=O	nt	nt	nt	-2	-11	6.7	-1	0.2	nt	-7
COc1ccc(CC(=O)N2CCCC(C)C2)cc1 (configuration not stated)	nt	nt	nt	-3	-21	1.5	3	1.9	-15	-3
O=C1C(Cc2ccc(O)cc2)NC(=S)N1c1ccccc1 (configuration not stated)	nt	nt	nt	-6	13	-1.4	4	0.0	27	-6
O=C(c1cnc(N2CCN(c3ncccn3)CC2)c2ccccc12)N1CCN(c2ncccn2)CC1	nt	nt	nt	nt	-5	-2.7	16	-0.8	5	8
CN(C)c1nc(OCCNC(=O)COc2ccccc2Cl)nc(N(C)C)n1	nt	nt	nt	-2	3	0.0	-9	0.6	1	4
O=C(CSc1ccc(Cl)cc1)N1CCN(c2ccc(Cl)cc2[N+](=O)[O-])CC1	-13	-14	5.7	6	11	-0.3	2	-0.1	-14	45
Cc1ccc(CCNC(=O)c2sc3nc4n(c(=O)c3c2C)CCC4)cc1	-19	-21	-2.8	1	-4	-1.4	-26	-0.9	-3	6
Cc1ccc(C)n1-c1ccc(C(=O)/C=C/N(C)C)cc1	3	3	2.1	-13	-9	i	8	-0.6	0	-4

Only part of the results is shown; the hit share may differ from the screen's.
